Screening data from PubChem.
SARS PLpro yeast = SARS-CoV PLP inhibition in yeast; Potency, µM (top dose mostly 32.9 µM), for inactives: at the top dose activity, positive = growth rescue; 330,000 compounds, 0.19% hits; S. cerevisiae expressing SARS-CoV PLpro, growth rescue; control for the full effect not named in the record; active means well fitted rising curve with a large enough effect; inconclusive means small, poorly fitted or top-dose-only effect; inactive means no such curve, though single readings can be large or run the other way; also: 0% is about no effect; nearly all actives have a fitted effect of over 55% in size; growth read by luminescence after 48 h
2A StopGo = lowers the luciferase signal of an FMDV 2A StopGo reporter. human cells with a luciferase reporter of 2A StopGo recoding; control for the full effect not named in the record. Potency, µM (titrated, usually from 57.9 µM), inactives show at the top dose signal change, negative = less light. 410,000 compounds, 1.2% hits. AID 1159524; active = well fitted falling curve with a large enough effect; inconclusive = small, poorly fitted or top-dose-only effect; inactive = no such curve, though single readings can be large or run the other way; tested in HEK293T cells; also: % is scaled to controls: 0 for no effect and ±100 for the full control effect; nearly all actives have a fitted effect of over 45% in size; luciferase light after 4 h
RE007 growth inh = less growth of the S. pombe RE007 Vpr strain; S. pombe RE007 Vpr strain, BacTiter-Glo ATP luminescence, 24 h; control for the full effect not named in the record; AID 651644; 360,000 compounds, 0.21% hits; Potency, µM (series often up to 92.2 µM), for inactives: at the top dose activity change, negative = less growth; active = well fitted falling curve with a large enough effect; inconclusive = small, poorly fitted or top-dose-only effect; inactive = no such curve, though single readings can be large or run the other way;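 also: % is scaled to controls: 0 for no effect and ±100 for the full control effect; nearly all actives have a fitted effect of over 50% in size; the assay follows cell death caused by Vpr and the record does not say whether a fall means rescue or toxicity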
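Fission yeast RE007 carrying one integrated HIV-1 vpr copy, seeded at OD 0.01 in PMG+AL medium with 23 nL pinned compound. Grown 24 h at 30 degrees; viability read by BacTiter-Glo luminescence after 5 min.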
Numbers without * were called inactive; u = inconclusive; [ ] = dose if it differs, or a comment. Potency is read from the fitted curve at half-maximal effect.

Results follow in this order: SARS PLpro yeast, 2A StopGo, RE007 growth inh
1	COc1ccc(Cl)cc1NC(=O)COC(=O)c1cc(C)oc1C
  -0.7%, -20.3%, -2.1%
2	CCOc1ncccc1C(=O)OCC(=O)c1c[nH]c2ccccc12
  -7.4%, 13.5%, 20.5%
3	C[C@@H](O)Cc1cn(CC(=O)NCCCCCCCCCCC(=O)N2CCNCC2)nn1
  -1.1%, -15.7%, -9.8%
4	Cc1cc([N+](=O)[O-])nn1CC(=O)N1CCN(Cc2ccccc2)CC1
  6.1%, -8.0%, 13.1%
5	C#CCOCCOCCOCCNc1nc(N2CCN(C(=O)CCCCCCCCCCNC(=O)[C@H](CCCCN)n3cc(CCCC(=O)O)nn3)CC2)nc(N2CCN(C(=O)CCCCCCCCCCNC(=O)[C@H](CCCN=C(N)N)n3cc(C[C@@H](C)CC)nn3)CC2)n1
  -3.7%, u, 6.5%
6	C=CC[C@H](CC(=O)OC(C)(C)C)C(=O)OC[C@@H]1CCCN1C(=O)[C@H](CC=C)CC(=O)N[C@H](CO)Cc1ccccc1
  2.8%, -5.1%, -11.3%
7	CC1=NN(C(N)=S)C(=O)C1N=Nc1ccccc1 (stereo not drawn)
  16.4%, 71.9%[activator], -12.3%
8	O=C(COc1ncnc2ccccc12)NC1CCCC1
  -0.6%, 5.8%, 15.9%
9	CN(C)S(=O)(=O)NC(=O)C1=C(N2CCCC2)COC1=O
  -1.7%, -14.5%, 29.1%
10	Cc1cccc(NC(=O)CN(CC2CCCO2)C(=O)c2oc3ccccc3c2C)c1C (stereo not drawn)
  1.4%, -18.8%, -4.3%
11	CSc1ccccc1NC(=O)Nc1cccc(Cl)c1C
  0.5%, 9.6%, 9.7%
12	Cc1cc(C(=O)NNC(=O)c2cccc([N+](=O)[O-])c2)n[nH]1
  5.9%, 3.4%, -8.2%
13	Cn1cc(CC(=O)NCCCN2CCOCC2)c2ccccc21
  -0.5%, -9.3%, -6.2%
14	COc1cc(C(=O)N[C@H](C(=O)OCC(=O)NC2CCCCCC2)C(C)C)cc(OC)c1OC
  0.8%, 15.7%, 16.7%
15	CCN(C[C@H]1N[C@@](C)(C(=O)OC)[C@H]2C(=O)N(C)C(=O)[C@@H]12)C(=O)Nc1ccc(OC)cc1
  -3.2%, -11.4%, 7.1%
16	COCC(=O)N(C)C[C@H]1N[C@@](C)(C(=O)OC)[C@H]2C(=O)N(Cc3ccccc3)C(=O)[C@@H]12
  3.3%, -7.7%, 5.4%
17	CC(C#N)Sc1ccc(S(=O)(=O)N(C)C2CCCCC2)cn1 (stereo not drawn)
  -3.2%, -14.1%, -3.8%
18	CSc1ccc(Cl)c(C(=O)N2CCN(c3ncccn3)CC2)c1
  -4.3%, -17.4%, -0.4%
19	Cc1nnc(SCC(=O)Nc2ccc(N3CCOCC3)cc2)n1Cc1ccccc1
  2.1%, -14.5%, -6.3%
20	CN(C(=O)c1ccc(NC(=O)Cc2ccc(NC(=O)C3CCCN(C(=O)C4CC4)C3)cc2)cc1)C1CC1 (stereo not drawn)
  2.4%, 4.1%, 2.6%
21	COc1ccc(NC(=O)CN(C)C(=O)c2ccc(COc3ccccc3)cc2)cc1
  -0.3%, -4.1%, -8.3%
22	COc1ccccc1NC(=O)C(C)OC(=O)C1COc2ccccc2O1 (stereo not drawn)
  -12.3%, -5.0%, 15.4%
23	CC[C@]12c3[nH]c4cc(CCC(=O)N(C)C)ccc4c3CCN1C(=O)[C@@H](CC(=O)NCc1cccc(C(F)(F)F)c1)C[C@@H]2C(=O)N1CCN(C(=O)C2CC2)CC1
  5.1%, -14.0%, -6.1%
24	C[C@]12c3[nH]c4cc(-c5ccco5)ccc4c3CCN1C(=O)[C@@H](CC(=O)NCCc1ccccn1)C[C@@H]2C(=O)N1CCCCC1
  3.7%, -23.1%, -6.7%
25	CN(C)S(=O)(=O)c1ccc(C(=O)OCC(=O)c2csc(N3CCCCC3)n2)cc1
  2.6%, 16.9%, 8.5%
26	Nc1cccc(C#Cc2ccc3c(c2)C(=O)/C(=C/c2ccsc2)O3)c1
  -0.5%, 32.2%[activator], -9.1%
27	Cc1cccc(NC(=O)COC(=O)c2n[nH]c3ccccc23)c1C
  -11.9%, 3.6%, 15.8%
28	CC1CCN(C(=O)c2[nH]cnc2C(=O)NCc2ccc(CNC(=O)OC(C)(C)C)cc2)CC1
  2.3%, u, -9.5%
29	O=C(COC(=O)c1cccc(Cl)c1)NC1CCCCCCC1
  2.5%, 1.2%, u
30	COC(=O)c1ccsc1NC(=O)c1ccccc1
  -3.4%, -3.3%, -12.1%
31	O=C(CCCn1c(=O)[nH]c2cc(Cl)ccc2c1=O)NCCCN1CCN(c2ccc(F)cc2)CC1
  -1.1%, u, -7.4%
32	COC(=O)c1sc2nc(SCC(=O)N(C)c3ccccc3)n(N)c(=O)c2c1C
  1.8%, -19.0%, 61.5%
33	O=C(COC(=O)CNC(=O)c1ccc(Cl)cc1Cl)NNC(=O)c1ccccc1
  0.2%, -11.6%, 1.4%
34	CC(Sc1ccsc1[N+](=O)[O-])C(=O)NCc1ccco1 (stereo not drawn)
  2.5%, -7.1%, 8.9%
35	COc1ccc2c(C(=O)NCc3ccc4c(c3)OCO4)c(-c3ccc(S(C)(=O)=O)cc3)sc2c1
  -15.0%, -10.8%, -9.0%
36	CC(C)(O)/C=C/C[C@](C)(O)C1CC[C@]2(C)C1[C@H](O[C@H]1O[C@@H](CO)[C@H](O)[C@@H](O)[C@@H]1O)CC1[C@@]3(C)CC[C@H](O)C(C)(C)C3[C@@H](O)C[C@]12C (stereo partly drawn)
  1.1%, -12.8%, 1.2%
37	CCOc1cc(N2CCOCC2)c(OCC)cc1NC(=O)CN1C(=O)N(C)C2(CCCCC2)C1=O
  7.9%, -22.3%, 2.6%
38	COc1ccccc1-c1noc(COC(=O)c2ccc(Br)o2)n1
  -1.3%, -12.8%, -21.3%
39	CC1CCCCC1NC(=O)Cn1cc([N+](=O)[O-])ccc1=O (stereo not drawn)
  5.1%, -5.2%, -1.0%
40	N#Cc1ccc(CN2CCN(CC(=O)Nc3ccccc3C(=O)NC3CC3)CC2)cc1
  6.8%, -25.4%, 9.6%
41	CC1CC(C)CN(C(=O)Cn2cc(C=O)c3ccccc32)C1 (stereo not drawn)
  -0.8%, -19.5%, 3.9%
42	C=CCC[C@H](Cc1ccc(F)cc1)C(=O)OC[C@@H](C)NC(=O)[C@H](CC=C)CC(=O)NCCO
  0.2%, -4.7%, 2.4%
43	CCOP(=O)(Cc1ccccc1)OCC
  -6.1%, 3.4%, -0.4%
44	O=S(=O)(c1ccc(F)cc1)N1CCN=C1SCc1cccnc1
  3.5%, -4.5%, -3.5%
45	COc1ccccc1NC(=O)c1ccc(NC(=O)c2nc3nccc(C)n3n2)cc1
  4.8%, -8.5%, -11.7%

Molecules shown so far that contain a nitro group on carbon:
Results follow in this order: SARS PLpro yeast, 2A StopGo, RE007 growth inh
4	Cc1cc([N+](=O)[O-])nn1CC(=O)N1CCN(Cc2ccccc2)CC1
  6.1%, -8.0%, 13.1%
12	Cc1cc(C(=O)NNC(=O)c2cccc([N+](=O)[O-])c2)n[nH]1
  5.9%, 3.4%, -8.2%
34	CC(Sc1ccsc1[N+](=O)[O-])C(=O)NCc1ccco1 (stereo not drawn)
  2.5%, -7.1%, 8.9%
39	CC1CCCCC1NC(=O)Cn1cc([N+](=O)[O-])ccc1=O (stereo not drawn)
  5.1%, -5.2%, -1.0%

More compounds:
entry	molecule	SARS PLpro yeast	2A StopGo	RE007 growth inh
46	COc1ccc(S(=O)(=O)N2CCCCC2)cc1NC(=O)CCCOc1ccccc1	3.9%	-3.7%	11.4%
47	O=c1oc2ccccc2c(NCCO)c1[N+](=O)[O-]	-0.1%	-2.2%	3.5%
48	Cc1cccc(C(=O)NNC(=O)c2ccc(NS(=O)(=O)c3cccs3)cc2)c1C	-10.7%	-6.2%	-16.0%
49	O=C(Nc1cccc(O)c1)c1ccc([N+](=O)[O-])cc1Cl	2.4%	29.5%	-6.6%
50	COCCNC(=O)CCCn1c(=O)c2cc(OC)c(OC)cc2n(CC(=O)Nc2ccccc2OC)c1=O	-0.1%	-4.5%	10.2%
51	COc1ccc(CC(=O)N[C@@H]2c3ccccc3CC[C@@H]2OCc2ccccc2)cc1	u	-21.4%	1.2%
52	O=C(COC(=O)Cn1cnc2ccccc2c1=O)NCc1ccccc1Cl	0.4%	-10.7%	-6.9%
53	CCN(C[C@H]1N[C@@](CC)(C(=O)OC)[C@H]2C(=O)N(C)C(=O)[C@@H]12)S(=O)(=O)c1ccc(OC(F)(F)F)cc1	2.0%	-23.2%	19.8%
54	Cc1noc(C)c1C(=O)Nc1sccc1C(N)=O	-2.8%	u	-3.9%
55	O=C(CSc1nc2ccccc2c(=O)n1CCCO)NC1CC1	3.3%	7.0%	-8.1%
56	O=C(COC(=O)c1ccc(Cl)cc1Cl)Nc1cccc(S(=O)(=O)NC2=NCCC2)c1	-8.3%	-15.2%	0.4%
57	COc1ccc(-c2ccc3c(=O)cc(-c4ccsc4)oc3c2)cn1	-1.9%	1.4%	6.0%
58	CC1(C)Cc2c(c(-c3ccco3)nc3sc4c(NCCO)ncnc4c23)CO1	-1.1%	-29.3%	11.6%
59	O=C(O)c1cccc(N2C(=O)/C(=C/c3ccc([N+](=O)[O-])cc3)C=C2c2ccccc2)c1	1.4%	12.6µM*	23.2%
60	CCN(CC(=O)Nc1c(F)cccc1F)C(=O)c1ccc(-c2ccc(C(C)=O)cc2)o1	-1.0%	-17.5%	7.5%
61	Cc1cccc([C@H](NC(=O)OC(C)(C)C)C(=O)OC(C)(C)C)c1	3.3%	-6.7%	3.4%
62	CC1(C)CC[C@]2(C(=O)O)CC[C@]3(C)C(=CC[C@@H]4[C@@]5(C)CC[C@H](O[C@@H]6O[C@H](C(=O)O)[C@@H](O)[C@H](O[C@@H]7OC[C@H](O)[C@H](O)[C@H]7O)[C@H]6O)C(C)(C)[C@@H]5CC[C@]43C)[C@@H]2C1	0.1%	-66.2%	u
63	O=C(Cc1ccccn1)c1ccccc1	-1.3%	26.2%	-18.7%
64	Cc1ccc(CSC2=NCCN2S(=O)(=O)c2ccccc2)cc1	-6.9%	12.9%	14.3%
65	O=C(c1cn(Cc2ccccc2)nc1-c1ccccc1)N1CCN(c2ccccn2)CC1	3.3%	25.3%	-19.7%
66	O=C1ON=C(c2ccccc2[N+](=O)[O-])/C1=C/c1cccc([N+](=O)[O-])c1O	0.3%	11.0%	-9.1%
67	COc1cc2sc3cc(NCCCN4CCOCC4)ccc3c(=O)c2cc1OC	1.6%	13.5%	-6.0%
68	O=C(NN1C(=O)NC2(CCCCC2)C1=O)c1ccc(Cl)s1	-0.2%	-3.9%	0.1%
69	Cn1cnc(C(=O)NCc2ccccc2)c1C(=O)NCc1ccccc1	0.9%	-11.3%	3.6%
70	O=C(CSc1nnc(C2CC2)n1-c1ccccc1)N1CCNC1=O	-2.5%[6.58 µM]	-13.4%	6.0%
71	Cc1ccccc1OCCC(=O)OCC(=O)NCCc1ccc(S(N)(=O)=O)cc1	-0.2%	2.7%	3.5%
72	O=C(COC(=O)Cc1n[nH]c(=O)c2ccccc12)NNC(=O)c1ccc(Br)cc1	-1.9%	3.4%	8.6%
73	CCOc1ccc(-n2c(=O)c3sccc3n(CC(=O)NCCc3ccc(OC)c(OC)c3)c2=O)cc1	0.8%	6.7%	18.9%
74	Cc1[nH]c2ccccc2c1C(=O)CN1C(=O)NC2(CCCCCC2)C1=O	-1.8%	-4.9%	-1.2%
75	Cc1ccc(S(=O)(=O)NC2CCCCC2)cc1C(=O)N1CCC(C(N)=O)CC1	0.3%	6.4%	-12.3%
76	N#CC1(NC(=O)COc2ccc(C(N)=O)cc2)CCCC1	0.9%	-7.5%	-4.5%
77	COc1ccccc1CN(C)C(=O)c1ccc(S(=O)(=O)NCc2ccco2)cc1	3.6%	14.3%	-14.6%
78	COc1ccc([N+](=O)[O-])cc1NC(=O)C(C)OC(=O)c1cccnc1 (stereo not drawn)	-1.1%	-25.9%	-3.8%
79	COCc1ccc(C(=O)OC(C)C(=O)Nc2c(C)n(C)n(-c3ccccc3)c2=O)cc1 (stereo not drawn)	2.3%	-11.1%	-20.0%
80	O=C(COc1ccc(Br)cc1)N1CCN(c2ncccn2)CC1	0.0%	-7.3%	-16.9%
81	COc1ccc(Cl)cc1NC(=O)CN(C)C(=O)COc1ccccc1F	-0.8%	-13.0%	-4.8%
82	Fc1ccc2cc(-c3cccnc3)ncc2c1	-28.3%	60.7%[activator]	-3.8%
83	CC1CCN(Cc2nc(Cl)c3c4c(sc3n2)CCC4)CC1	0.4%	-3.2%	-14.7%
84	CC1CCN(C(=O)COC(=O)CCC(=O)c2ccc(Cl)cc2)CC1	1.1%	-5.9%	-4.3%
85	COc1ccc2sc(-c3ccc(N(C)C)cc3)c(C#CC(C)(C)O)c2c1	-1.0%	-5.5%	-24.0%

These rows are one share of the data; count on the stated rates, not on these rows.
